Rango complex inh: inhibitors of Rango-importin beta complex formation; Potency, µM (top dose mostly 92.2 µM), for the others: at the top dose inhibition of complex formation; actives 0.031% (n = 340,000); Rango CFP/YFP FRET sensor + importin beta, 45 min; active = rising FRET ratio curve, often small or poorly fitted; inconclusive = mostly compound fluorescence or quenching in the first reads; inactive = flat curves in all reads;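 also: potency is read from the fitted curve at half-maximal effect; 0% = DMSO wells and 100% = buffer wells lacking importin beta; nearly all actives have a fitted effect of over 15% in size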
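FRET biosensor Rango (snurportin 1 IBB between N-terminal EYFP and C-terminal Cerulean), 50 nM in PBS/1 mM DTT/0.02% Tween-20/0.1% BSA, preincubated 5 min RT with compound; 0.125 microM importin beta added, 45 min RT, CFP/YFP FRET ratio read.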
miR-21 reporter: raises the signal of a miR-21 reporter; HeLa miR-21 FLuc reporter, luciferase, 48 h; Potency, µM (doses to about 38.3 µM), inactives show at the highest dose reporter change, positive = more light; 340,000 tested, under 10 active; active = well fitted rising curve with a large enough effect; inconclusive = small, poorly fitted or top-dose-only effect; inactive = no such curve, though single readings can be large or run the other way;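 also: % of control where 0% means no effect; miR-21 action dims this reporter so a rising signal means less miR-21 action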
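Luminescence from a firefly luciferase reporter carrying a miR-21 binding site downstream, stably expressed under a CMV promoter in HeLa cells that make miR-21 endogenously, reports miRNA modulation after 48 h compound exposure up to approximately 40uM final.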
Rango dissoc inh: prevents RanGTP from dissociating the Rango-importin beta complex | O95149+P62826 | Biochemical FRET Rango-importin beta, RanGTP-induced dissociation | Potency, µM (doses to about 46.1 µM), without a hit: top-dose activity change, negative = inhibition | actives 0.071% (n = 340,000) | AID 540253; active means falling FRET ratio curve, often poorly fitted, with flat reads before Ran was added; inconclusive means other falling curves, or compound fluorescence or quenching; inactive means flat or rising ratio curve;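 also: potency is read from the fitted curve at half-maximal effect; % of control where 0% means no effect; nearly all actives have a fitted effect of over 45% in size; -100% = wells without RanGTP and RCC1; the record marks most hits as doubtful in a second field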
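Rango (0.1 uM)–importin beta (0.25 uM) complex; RanGTP-RCC1 trigger; 45 min RT; CFP/YFP FRET read.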
GLA inh pH 4.5: blocks human alpha-galactosidase A at pH 4.5; P06280; purified enzyme, 4-MU-alpha-Gal fluorescence, pH 4.5; activity change, negative = inhibition, % at 105 µM; 230,000 tested, under 10 active; inconclusive = small, poorly fitted or top-dose-only inhibition, or a rising curve; inactive = flat fitted curve, though single readings scatter; no compound was filed as active;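 also: 0% = full activity with enzyme and -100% = basal without enzyme; dose as in the result columns while the protocol names 77 µM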
Target sequence (P06280 whole entry, looked up): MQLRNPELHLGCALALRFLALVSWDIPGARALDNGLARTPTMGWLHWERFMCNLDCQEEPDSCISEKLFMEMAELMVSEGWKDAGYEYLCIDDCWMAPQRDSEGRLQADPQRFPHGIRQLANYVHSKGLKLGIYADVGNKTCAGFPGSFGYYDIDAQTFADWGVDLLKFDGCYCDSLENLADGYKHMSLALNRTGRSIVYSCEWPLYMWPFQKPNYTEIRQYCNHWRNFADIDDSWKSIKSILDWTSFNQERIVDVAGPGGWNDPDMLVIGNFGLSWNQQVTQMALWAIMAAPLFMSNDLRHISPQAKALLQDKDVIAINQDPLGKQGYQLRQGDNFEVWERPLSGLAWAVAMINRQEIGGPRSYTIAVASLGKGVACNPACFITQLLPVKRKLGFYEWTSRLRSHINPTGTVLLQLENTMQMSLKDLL
The depositor's hits bear a star; u = inconclusive; x = no result given; & = joins results of further samples; [ ] = another dose, or the depositor's remark. Some of the compounds tested; the hit share may differ from the screen's.

SMILES | Rango complex inh | miR-21 reporter | Rango dissoc inh | GLA inh pH 4.5
CC(C)N1CCC(N2CCN(Cc3ccc(-c4ccccc4Cl)o3)CC2CCO)CC1 (configuration not stated) | u | -3% | -3% | 1
O=C(CNC(=O)[C@@H]1Cc2ccccc2CN1)NC1CCCCC1 | u | 0% | -22% | x
CCOCCCn1c(SCC(=O)NC(C)C)nc2ccccc2c1=O | 0.6% | -8% | -4% | 3
COc1ccc(N2CCN(C(=O)CCCC(=O)c3ccccc3)CC2)cc1 | 3.1% | -6% | 3% | x
O=c1[nH]cnc2c1ncn2[C@@H]1O[C@H](COS(=O)(=O)O)[C@@H](O)[C@H]1O | -2.3% | x | -20% | x
CCN(C[C@H]1N[C@@](Cc2ccccc2)(C(=O)OC)[C@H]2C(=O)N(Cc3ccccc3)C(=O)[C@@H]12)C(=O)COC | 1.4% | x | 12% | x
COc1ccc(S(=O)(=O)N2CCCCCC2)cc1C(=O)N(C)Cc1ccc(C)cc1 | -2.8% | x | -18% | x
COC(=O)c1ccccc1NC(=O)CN(C1CCCCC1)S(C)(=O)=O | -5.2% | -5% | 0% | -4
CC[C@]12c3[nH]c4ccccc4c3CCN1C(=O)C(CC(=O)NCC13CC4CC(CC(C4)C1)C3)C[C@@H]2C(=O)N1CCN(C(=O)C2CC2)CC1 (some centres not stated) | 0.1% | x | -8% | x
COC(=O)CNC(=O)CNC(=O)Nc1ccccc1 | -1.4% | 2% | 22% | -2
CSCc1ccc(C(=O)N2CCC(CCC(=O)N(C)Cc3ccccc3)CC2)o1 | -0.8% | 5% | -5% | x
COc1ccc(N=C2SC(C(=O)Nc3ccc(F)cc3)CC(=O)N2C)cc1 (configuration not stated) | -1.0% | 1% | -1% | -3
CN(C)CCC(=O)c1ccc(F)cc1 | 5.5% | 7% | 13% | -6
Cc1[nH]c(=S)[nH]c(=O)c1CCCO | 3.6% | -1% | 11% | -9
CC(C)C[C@H]1COCCS(=O)(=O)N1Cc1ccccc1F | 0.0% | x | -9% | x
O=C(NC1CC1)C1CCN(C2CCN(C(=O)c3ccc(C(F)(F)F)cc3)CC2)CC1 | -0.8% | -1% | 0% | x
COc1ccc(/C=N/Nc2nc(N)cc(Cl)n2)cc1OC | 7.3% | -31% | 1% | 9
CCC1CCCCN1CCCNC(=O)c1cc2c(Cl)nc3ccccc3c2s1 (configuration not stated) | 4.7% | 10%&10% | -1% | -3[21.1 µM]
N#CCOc1ccccc1/C=N/n1nnnc1N | -3.5% | -6% | 35% | x
CCOc1ccc(N2C(=O)CCC2=O)cc1 | 0.1% | -1% | 0% | 3
Cc1ccc(S(=O)(=O)N2CCN(c3ncnc4scc(-c5ccc(F)cc5)c34)CC2)cc1 | -1.2% | x | 0% | x
CCC(C)C(NC(=O)c1ccccc1NC(=O)c1ccccc1)C(=O)N1CCOCC1 (configuration not stated) | 0.9% | -4% | 13% | -6
N#CN=C(N)c1ccccc1 | 1.2% | 1%&-1% | -9% | -2&2
Cc1cc(C)c(C#N)c(SCC(=O)N2CCN(Cc3ccccc3)CC2)n1 | 11% | -3% | -8% | 1
CC1CCN(C(=O)CSc2nnc(-c3ccco3)o2)CC1 | -5.0% | -22% | -7% | 2

Entries of single compounds, looked up by structure. Order of values: Rango complex inh, miR-21 reporter, Rango dissoc inh, GLA inh pH 4.5
Shown for CCC(C)C(NC(=O)c1ccccc1NC(=O)c1ccccc1)C(=O)N1CCOCC1 (configuration not stated) : 0.9%, -4%, 13%, -6
Shown for Cc1[nH]c(=S)[nH]c(=O)c1CCCO : 3.6%, -1%, 11%, -9
Shown for Cc1cc(C)c(C#N)c(SCC(=O)N2CCN(Cc3ccccc3)CC2)n1 : 11%, -3%, -8%, 1
Shown for O=c1[nH]cnc2c1ncn2[C@@H]1O[C@H](COS(=O)(=O)O)[C@@H](O)[C@H]1O : -2.3%, x, -20%, x
Shown for COc1ccc(N2CCN(C(=O)CCCC(=O)c3ccccc3)CC2)cc1 : 3.1%, -6%, 3%, x

Going on with the list:
SMILES | Rango complex inh | miR-21 reporter | Rango dissoc inh | GLA inh pH 4.5
Cc1cc(C(=O)N2CCC(CO)(Cc3cccc(C(F)(F)F)c3)CC2)n[nH]1 | u | 1% | 0% | x
CCCn1c(=S)[nH]c2cc(C(=O)N3CCc4ccccc43)ccc2c1=O | 2.3% | 2% | -10% | 6
CCCCNC(=S)NNC(=O)c1ccco1 | 0.8% | -7% | 1% | -6
Cc1cc(C(=O)CN2C(=O)NC(Cc3c[nH]c4ccccc34)C2=O)c(C)n1C (configuration not stated) | 4.5% | -8% | -11% | -1
COc1ccc(N2CCN(CCCNC(=O)CCCn3c(=O)[nH]c4ccsc4c3=O)CC2)cc1 | 6.1% | -6% | -1% | 6
COc1ccc(NC(=O)CC(C)CC(=O)NCc2ccccc2)c(OC)c1 (configuration not stated) | 0.3% | -1% | 2% | x
COc1cc(C(=O)OCc2csc(CC(=O)Nc3cc(C)ccc3C)n2)ccc1OC(F)F | -1.8% | x | -14% | x
CCCCc1nnc(NC(=O)COC)s1 | -1.1% | -15% | -6% | 6
O=C(CN1CCN(Cc2ccccc2F)C1=O)NCCc1ccc(Cl)cc1 | -3.8% | -2% | 21% | 0
NC(=O)c1c(NC(=O)c2ccncc2)sc2c1CCCC2 | u | -32% | -5% | -8[21.1 µM]
COc1ccc(C(=O)NCc2nnc(SCC(=O)NCCc3ccccc3)o2)cc1 | -0.8% | -1% | -12% | x
CCCn1c(=O)c2sccc2n2c(CCCC(=O)NC3CCN(Cc4ccccc4)CC3)nnc12 | 0.3% | -4% | 3% | x
CNC(=O)[C@@]1(C)C=C[C@@H](Cc2ccccc2)N1C(=O)OC | -1.5% | -21% | -19% | -5&1
Cc1ccc2nc(CSc3nnc(-c4ccco4)o3)cc(=O)n2c1 | -2.2% | -12% | -1% | -6
CCOC(=O)c1c(C)[nH]c(C)c1C(=O)COc1ccc(NC(=O)c2ccco2)cc1 | 0.2% | -11% | 3% | 4
CCSc1nnc(C)c(=O)n1COC(=O)c1ccc(S(=O)(=O)N2CCCC2)cc1 | -1.0% | 6% | 0% | 7
O=C(Nc1sc2c(c1C(=O)O)CCC2)c1ccc(F)cc1 | -1.9% | 12% | 28% | -7
O=C(COC(=O)c1c(F)cccc1Cl)NC1CCCCC1 | 0.0% | x | 0% | x
O=[N+]([O-])c1ccc(-c2ccc(/C=N/c3c(-c4ccco4)nc4ccccn34)o2)cc1 | u | -6% | u | -4
COc1ccc(N=Nc2nc3cc(Br)c(Br)cc3n2C)c(OC)c1 | u | -49% | u | 6
COc1cccc(CSc2nnc(-c3ccncc3)n2C)c1 | 3.3% | 0% | -16% | x
O=C1c2ccccc2C(=O)N1CCCCSc1nnc(-c2ccc(OC(F)F)cc2)o1 | 2.1% | 1% | 6% | -13
O=C(Nc1ccc([N+](=O)[O-])cn1)C1CC2CCC1C2 (configuration not stated) | 3.7% | -35% | -15% | 2
CCOc1ccc(OCCC(=O)N(CC)CC(=O)Nc2ccccc2OC)cc1 | 0.5% | x | -16% | x
COc1ccc(NC(=O)C2C3C=CC4(O3)C2C(=O)N(CCN2CCCCC2C)C4C(=O)NC2CCCC(C)C2C)cc1 (configuration not stated) | 2.6% | 0% | -12% | x

Later entries.
SMILES | Rango complex inh | miR-21 reporter | Rango dissoc inh | GLA inh pH 4.5
Nc1ccc2oc(-c3ccccc3Cl)nc2c1 | -0.7% | -8% | -7% | 4
COc1ccc(-n2c(C)cc(C(=O)COc3ccc(-n4cnnn4)cc3)c2C)cc1 | -0.2% | 0% | -12% | 6
Cn1c(=O)[nH]c(=O)c2c1nc(NCc1ccco1)n2Cc1ccccc1Cl | -0.9% | 0% | 0% | 0
O=C1CS/C(=N/N=C/c2ccccc2)N1Cc1ccco1 | 4.6% | -24% | 14% | 5
Cc1ccc(S(=O)(=O)NNC(=S)Nc2ccccc2)cc1 | 0.7% | -22% | -8% | 3
CCNC(=S)N(CCN(C)C)Cc1cc2cc3c(cc2[nH]c1=O)OCO3 | 0.5% | 3% | 0% | x
O=C(NCC(c1ccco1)N1CCc2ccccc2C1)c1cccc(Br)c1 (configuration not stated) | 0.2% | x | -1% | x
CC1CCCC(NC(=O)COC(=O)Cc2ccc(Cl)cc2)C1C (configuration not stated) | 4.2% | x | 15% | x
Cc1ccc(NC(=O)CN2C(=O)NC3(CCCc4ccccc43)C2=O)cc1S(=O)(=O)N1CCOCC1 (configuration not stated) | -0.1% | 0% | -15% | -3
CO/N=C/NC(=O)NOCc1ncc(C(F)(F)F)cc1Cl | -4.2% | -6% | -7% | 4
Clc1ccccc1Cc1noc(CN2CCSCC2)n1 | -0.3% | -15% | u | 6
O=C(/C=C/c1ccc(Cl)cc1)NCCN1CCOCC1 | 0.4% | 0% | -6% | 1
O=C1CN(S(=O)(=O)c2ccc(F)cc2)c2ccccc2N1 | -5.5% | -4% | 36% | x
Clc1ccc(CN(Cc2ccccc2)C(c2cccs2)c2nnnn2C2CCCC2)cc1 (configuration not stated) | 5.5% | -2% | 0% | 5
Cc1c(Cl)cccc1NC(=O)CCN1CCN(CCO)CC1 | 1.5% | 2% | -22% | x
CCN(Cc1ccncc1)Cc1c(O)ccc2ccccc12 | u | -5% | 0% | 5
COc1cc2nc(Cl)nc(N3CCCCC3)c2cc1OC | -3.4% | -3% | 22% | -7
NC(=O)c1nsc(C(=O)N(Cc2ccco2)C(C(=O)NCC2CCCO2)c2ccc(O)cc2)c1N (configuration not stated) | u | 5% | -22% | x
COc1ccc(C(=O)N[C@H]2CCCCNC2=O)cc1OC1CCN(C(C)C)CC1 | 1.3% | -2% | -13% | x
O=C1OCC(c2ccccc2)=C1c1ccc(S(=O)(=O)N2CCOCC2)s1 | u | 2% | u | -9
Cc1ccc(S(=O)(=O)Nc2ccncc2)c(C)c1N(C)S(=O)(=O)c1ccc(F)cc1 | 0.4% | -18% | 6% | -12
Cc1ccccc1OCC(=O)N/N=C1\CC(=O)CC(C)(C)C1 | 0.0% | -10% | 3% | x
N#Cc1nc(-c2ccco2)oc1NCCCN1CCOCC1 | 2.2% | -3% | 19% | 7
COc1ccc(CCN2CC(C(=O)NCc3cc(C(C)C)no3)CCC2=O)cc1 (configuration not stated) | -0.8% | -1% | -10% | x
COc1ccc(C(=O)NCC(=O)OCC(=O)NCc2ccc3c(c2)OCO3)cc1 | u | x | 3% | x

Further entries
SMILES | Rango complex inh | miR-21 reporter | Rango dissoc inh | GLA inh pH 4.5
CCN(CC)S(=O)(=O)c1cccc(-c2nnc(SCCOc3ccccc3)o2)c1 | 2.7% | 24% | -15% | 2
CCO[C@H]1OC(C(=O)N2CCN(C)CC2)=C[C@@H](c2ccc3c(c2)OCO3)[C@@H]1CCCO | 3.8% | -2% | -12% | 5
Cc1ccc(S(=O)(=O)NCC(=O)OCC(=O)Nc2ccccc2OC(F)F)cc1 | -0.1% | -6% | -4% | 6
Cc1ccc(NC(=O)C2CCCCC2)c(O)c1 | x | -35% | x | 1
N#C/C(=C\c1ccc(OCCN2CCOCC2)cc1)C(=O)Nc1ccccc1F | u | -6% | -4% | x
Cc1ccc(N(CC(=O)NCCc2ccccc2)C(=O)c2csnn2)cc1 | -1.4% | -11% | u | x
CC(C)(C)c1nc2ccccc2c2nnc(SCC(=O)Nc3nccs3)n12 | 0.0% | -6% | -10% | 8
CCOC(=O)NC(=O)c1cn(CCNCCO)c(=O)[nH]c1=O | 3.7% | 2% | -5% | -4
CC(C)NC(=O)COc1ccc(S(=O)(=O)N(C)Cc2ccccc2)cc1 | -3.6% | 6% | -17% | 1
Cc1noc(C)c1S(=O)(=O)Nc1ccccc1OC(F)(F)F | 5.7% | -1% | u | -5
COc1ccccc1C(=O)NC(=O)COC(=O)CCOc1ccccc1C | 2.5% | x | 4% | x
CC(=O)N/C(=C\c1ccccc1)C(=O)OC(C)C(=O)N(C)c1ccccc1 (configuration not stated) | -0.1% | x | 5% | x
O=C(CCc1ccccc1)Nc1ccc2c(c1)C(=O)OC2 | -0.6% | -14% | 15% | x
O=C(N[C@@H](Cc1ccccc1)C(=O)NC1CCCCCC1)c1ccco1 | 5.5% | -33% | -3% | -3
COc1cc(/C=N/S(=O)(=O)CCc2ccccc2)ccc1O | 1.2% | 1% | -9% | -1

High-throughput results: PubChem, National Center for Advancing Translational Sciences (NCATS)
